# p53 mut binder – binders of human mutant p53, primary screen, biochemical, small molecule microarray, anti-GST fluorescence | small molecule microarray binding | calls only | 17,000 tested, 0.4% active | AID 624136, 2012;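 active = compounds whose four printed spots each glow above background more than chance allows, each with a p-value under 7%; compounds were printed on slides so no solution concentration is given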;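 note: about 2 pmol printed per array spot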
# Myc binder – binders of human c-Myc, primary screen, biochemical, small molecule microarray, anti-His fluorescence; AID 624141, 2012; His-c-Myc binding; Myc proto-oncogene protein (Homo sapiens), P01106; 17,000 tested, 1.5% active; calls only;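 active = spot fluorescence over background with P-value below 7% in all four replicate spots, showing protein binding; compounds were printed on slides so no solution concentration is given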;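 note: score is binary with 100 for all four spots passing and 0 otherwise; about 2 pmol printed per array spot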
# Target sequence (P01106 whole entry, looked up): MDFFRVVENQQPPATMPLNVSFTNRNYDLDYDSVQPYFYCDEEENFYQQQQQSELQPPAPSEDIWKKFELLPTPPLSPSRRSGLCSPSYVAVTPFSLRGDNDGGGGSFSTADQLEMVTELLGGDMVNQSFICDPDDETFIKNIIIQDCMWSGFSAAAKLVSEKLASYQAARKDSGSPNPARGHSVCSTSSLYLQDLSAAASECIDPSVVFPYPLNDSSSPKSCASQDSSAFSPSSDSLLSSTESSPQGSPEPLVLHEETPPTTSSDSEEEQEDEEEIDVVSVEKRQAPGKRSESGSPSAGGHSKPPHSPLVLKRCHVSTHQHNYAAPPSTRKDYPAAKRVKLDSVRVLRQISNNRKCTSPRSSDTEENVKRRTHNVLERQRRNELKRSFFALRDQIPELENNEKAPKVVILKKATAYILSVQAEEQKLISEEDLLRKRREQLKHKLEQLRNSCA
# STAT3 SMM – STAT3 binders, primary screen, biochemical, small molecule microarray, single point, set 2; calls only; 17,000 tested, 0.2% active; His-STAT3 binding, anti-His fluorescence;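 active = compounds whose four printed spots each show fluorescence over background unusually high for their array block, chance value under 7%; compounds were printed on slides so no solution concentration is given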;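 note: about 2 pmol printed per array spot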
# ID4 SMM – binders of human ID4 protein, primary screen, biochemical, small molecule microarray, single point. DNA-binding protein inhibitor ID-4 (Homo sapiens), P47928. Flag-ID4 binding, fluorescence F/B. calls only. 31,000 tested, 1.2% active. AID 624137, 2012;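 active = spot signal over background at p below 0.07 in all four prints; compounds were printed on slides so no solution concentration is given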;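 note: a binder raises fluorescence above local background on the spot; about 2 pmol printed per array spot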
# Target sequence (P47928 whole entry, looked up): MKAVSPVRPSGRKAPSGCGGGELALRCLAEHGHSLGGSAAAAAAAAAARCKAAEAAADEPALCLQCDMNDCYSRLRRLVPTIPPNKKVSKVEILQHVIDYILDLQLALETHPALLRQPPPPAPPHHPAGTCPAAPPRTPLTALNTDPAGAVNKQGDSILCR
# Calls only; i = inactive; nt = not tested or not shown; + = active, no number. An excerpt, so the mix of outcomes need not match the whole.
SMILES,p53 mut binder,Myc binder,STAT3 SMM,ID4 SMM
C[C@@H]1CN([C@@H](C)CO)C(=O)c2cc(NS(=O)(=O)c3ccccc3)ccc2O[C@@H](C)CCCCO[C@@H]1CN(C)C(=O)CCC(F)(F)F,i,i,i,i
C=CCN1CCc2cc(O)c(O)cc2C(c2ccccc2)C1 (stereo not drawn),i,i,i,i
C[C@@H]1CN([C@@H](C)CO)C(=O)Cc2cc(NS(=O)(=O)c3ccc(F)cc3)ccc2O[C@H]1CN(C)S(=O)(=O)c1cccs1,i,i,i,nt
CC(C)NC(=O)N(C)C[C@H]1Oc2ccc(NC(=O)C3CC3)cc2C(=O)N([C@@H](C)CO)C[C@H]1C,i,i,i,i
C[C@@H]1CCCCO[C@H](CN(C)Cc2ccc(Cl)c(Cl)c2)[C@@H](C)CN([C@@H](C)CO)C(=O)c2cc(NC(=O)c3ccccc3)ccc2O1,i,i,i,nt
C[C@H](CO)N1C[C@H](C)[C@H](CN(C)S(=O)(=O)c2ccccc2)OCCCC[C@H](C)Oc2ccc(N(C)C)cc2C1=O,+,i,i,i
C[C@H]1CN([C@@H](C)CO)C(=O)Cc2cc(NC(=O)C3CC3)ccc2O[C@H]1CN(C)Cc1ccncc1,i,i,i,i
C[C@@H]1CN([C@@H](C)CO)C(=O)Cc2cc(NC(=O)Nc3cccc4ccccc34)ccc2O[C@@H]1CN(C)S(=O)(=O)c1cccs1,i,i,i,i
C[C@H]1CN([C@@H](C)CO)C(=O)c2cccc(NS(C)(=O)=O)c2O[C@@H]1CN(C)C(=O)Nc1ccc(C(F)(F)F)cc1,i,i,i,i
O=C(CSc1ncccc1C(=O)O)Nc1ccc(Oc2ccccc2)cc1,i,i,i,i
COC(=O)C(CC#Cc1ccc2c(c1)[C@]1(C(=O)N2)[C@H](C(N)=O)[C@H]2C(=O)O[C@H](c3ccccc3)[C@H](c3ccccc3)N2[C@@H]1c1ccc(OCCO)cc1)C(=O)OC,i,i,i,nt
CNC[C@@H]1OCCCC[C@@H](C)Oc2ccc(N)cc2C(=O)N([C@H](C)CO)C[C@H]1C,i,i,i,i
C[C@@H]1CCCCO[C@H](CN(C)C(=O)c2ccncc2)[C@@H](C)CN([C@@H](C)CO)C(=O)c2cc(NS(C)(=O)=O)ccc2O1,i,i,i,i
C[C@H]1CN([C@@H](C)CO)C(=O)c2cccc(N(C)C)c2O[C@@H]1CN(C)Cc1ccccc1,i,i,i,i
O=C(NCc1cccnc1)C1COc2ccccc2O1 (stereo not drawn),i,i,i,i
CN(C(=O)CSc1nnc(-c2ccc(Cl)cc2)n1-c1ccccc1)c1ccccc1,i,i,i,i
C[C@@H]1CN([C@H](C)CO)C(=O)CCCn2nncc2CO[C@H]1CN(C)C,i,i,i,i
Cc1sc2ncnc(NCCCN3CCOCC3)c2c1-c1ccccc1,i,i,i,i
CC(C)[C@@H]1CC[C@@H](C)C[C@@H]1P(=O)(c1ccccc1)c1ccccc1,i,i,i,nt
C=CCOC(=O)C1=C[C@H](c2ccc(Br)cc2)C[C@H](OCc2ccc(CO)cc2)O1,i,i,i,nt
c1ccc(OCc2nc3ccccc3n2Cc2ccccn2)cc1,i,i,i,i
Cc1ccccc1NC(=O)CC1NCCNC1=O (stereo not drawn),i,i,i,i
CNC[C@H]1Oc2ccc(NS(C)(=O)=O)cc2CC(=O)N([C@H](C)CO)C[C@H]1C,i,i,i,i
COc1ccc(CN(C)C[C@@H]2Oc3ccc(NS(=O)(=O)c4ccc(Cl)cc4)cc3C(=O)N([C@H](C)CO)C[C@H]2C)cc1,i,i,i,i
C[C@@H]1CN([C@@H](C)CO)C(=O)c2cccc(NC(=O)C3CCOCC3)c2O[C@@H]1CN(C)S(=O)(=O)c1cn(C)cn1,i,i,i,i
C[C@H](CO)N1C[C@H](C)[C@H](CN(C)C(=O)Nc2ccccc2)OCCCC[C@H](C)Oc2ccc(NC(=O)c3ccncc3)cc2C1=O,i,i,i,i
CN(C)CCNc1nc2c(c(=O)n(C)c(=O)n2C)n1Cc1ccccc1F,i,i,i,i
Cc1noc(C)c1NC(=O)N(C)C[C@H]1OCc2cn(nn2)CCCC(=O)N([C@@H](C)CO)C[C@H]1C,i,i,i,i
C[C@@H]1CN([C@@H](C)CO)C(=O)Cc2cc(NC(=O)C3CC3)ccc2O[C@@H]1CN(C)C(=O)Nc1cccc2ccccc12,i,i,i,i
COc1ccc(S(=O)(=O)N(C)C[C@@H]2Oc3ccc(NC(=O)CCC(F)(F)F)cc3C(=O)N([C@@H](C)CO)C[C@@H]2C)cc1,i,i,i,i
O=C(OC[C@@H]1[C@H]2c3ccccc3OC1(CO)N=C1SCC(=O)N12)c1ccccc1,i,i,i,i
CCn1nccc1C(=O)Nc1nc2ccccc2n1CCN1CCCCC1,i,+,i,i
C[C@H](CO)N1C[C@H](C)[C@H](CN(C)Cc2ccc(Oc3ccccc3)cc2)Oc2c(NC(=O)c3ccncc3)cccc2C1=O,i,i,i,i
Nc1ncnc2n[nH]c(Nc3ccc(F)cc3)c12,i,i,i,i
O=C(COc1ccc(Cl)cc1CO)Nc1ccc(F)cc1,i,i,i,i
CC(=O)c1ccc(OC(=O)CCCN2C(=O)c3ccccc3C2=O)cc1,i,i,i,i
COc1ccc(NC(=O)Nc2ccc3c(c2)C(=O)N([C@H](C)CO)C[C@@H](C)[C@H](CN(C)C(=O)Nc2cccc4ccccc24)O3)cc1,i,i,i,nt
COC(=O)C1=CO[C@@H](OC2OC(O)C(O)C(O)C2CO)[C@H]2[C@@H]1C=CC21C=C([C@H](C)OC(=O)/C=C/c2ccc(OC3OC(CO)C(O)C(O)C3O)cc2)C(=O)O1 (stereo partly drawn),i,i,i,i
Cc1noc(C)c1NC(=O)N(C)C[C@@H]1Oc2ccc(NC(=O)Cc3ccccc3)cc2C(=O)N([C@@H](C)CO)C[C@H]1C,i,i,i,i
CNC[C@H]1Oc2ccc(NC(=O)Cc3cn(C)c4ccccc34)cc2CC(=O)N([C@@H](C)CO)C[C@H]1C,i,i,i,+
CC(C)OC(=O)C1C2C=CC3(CN(Cc4ccco4)C(=O)C13)O2 (stereo not drawn),i,i,i,i
COc1c(C(CC(C)C)OC(C)=O)ccc2c1C(=O)OCc1cc(C)cc(O)c1O2 (stereo not drawn),i,i,i,i
Cc1noc(C)c1NC(=O)N(C)C[C@H]1Oc2c(cccc2N(C)C)C(=O)N([C@@H](C)CO)C[C@H]1C,i,i,i,i
C[C@@H]1CN([C@@H](C)CO)C(=O)c2cc(NC(=O)Nc3ccc(F)cc3)ccc2O[C@H]1CN(C)S(=O)(=O)c1ccccc1,i,i,i,nt
COc1cc2c(cc1O)C(C1CC1)N(Cc1cc3c(cc1Br)OCO3)CC2 (stereo not drawn),i,i,i,i
O=C(CC1NC(=O)NC1=O)Nc1cccc(C(F)(F)F)c1 (stereo not drawn),i,i,i,i
Cc1noc(C)c1S(=O)(=O)Nc1cccc2c1O[C@@H](CN(C)CC1CC1)[C@@H](C)CN([C@H](C)CO)C2=O,i,i,i,i
C[C@H](CO)N1C[C@H](C)[C@@H](CN(C)Cc2ccc(-c3ccccc3)cc2)Oc2c(NS(=O)(=O)c3cccs3)cccc2C1=O,i,i,i,i
Cc1cc(C(=O)Nc2cccc3c2O[C@@H](CN(C)S(=O)(=O)c2cccs2)[C@@H](C)CN([C@@H](C)CO)C3=O)n(C)n1,i,i,i,i
Nc1nc(SCC(=O)c2ccc(Cl)cc2Cl)n[nH]1,i,i,i,i
C[C@@H]1CN([C@@H](C)CO)C(=O)c2cc(NC(=O)Nc3ccc(C(F)(F)F)cc3)ccc2O[C@@H](C)CCCCO[C@@H]1CN(C)CC1CCCCC1,i,i,i,nt
C[C@@H]1CN([C@@H](C)CO)C(=O)CCCn2cc(nn2)CO[C@H]1CN(C)C(=O)OCc1ccccc1,i,i,i,i
Cc1noc(C)c1NC(=O)Nc1ccc2c(c1)C(=O)N([C@H](C)CO)C[C@H](C)[C@H](CN(C)C(=O)NC1CCCCC1)OCCCC[C@H](C)O2,i,i,i,nt
C[C@H](CO)N1C[C@H](C)[C@H](CN(C)S(=O)(=O)c2ccccc2)Oc2ccc(NC(=O)c3ccncc3)cc2CC1=O,i,i,i,i
CNC[C@H]1OCc2cn(nn2)CCCC(=O)N([C@H](C)CO)C[C@@H]1C,i,i,i,i
COc1ccc(CN(C)C[C@@H]2Oc3ccc(NC(=O)Cc4ccccc4)cc3C(=O)N([C@@H](C)CO)C[C@H]2C)cc1,i,i,i,i
C[C@@H]1CCCCO[C@H](CN(C)Cc2ccccc2)[C@@H](C)CN([C@H](C)CO)C(=O)c2cc(NC(=O)Nc3ccc4c(c3)OCO4)ccc2O1,i,i,i,i
COc1ccc(S(=O)(=O)N(C)C[C@H]2Oc3ccc(NC(=O)c4ccncc4)cc3C(=O)N([C@@H](C)CO)C[C@H]2C)cc1,i,i,i,i
C[C@@H]1CCCCO[C@H](CN(C)C)[C@@H](C)CN([C@@H](C)CO)C(=O)c2cc(NC(=O)Nc3ccccc3)ccc2O1,i,i,i,i
CNC[C@H]1Oc2ccc(NS(=O)(=O)c3ccc(Cl)cc3)cc2CC(=O)N([C@@H](C)CO)C[C@H]1C,i,i,i,i

# The final 7 entries of the part above come first, to join the parts:
SMILES,p53 mut binder,Myc binder,STAT3 SMM,ID4 SMM
C[C@H](CO)N1C[C@H](C)[C@H](CN(C)S(=O)(=O)c2ccccc2)Oc2ccc(NC(=O)c3ccncc3)cc2CC1=O,i,i,i,i
CNC[C@H]1OCc2cn(nn2)CCCC(=O)N([C@H](C)CO)C[C@@H]1C,i,i,i,i
COc1ccc(CN(C)C[C@@H]2Oc3ccc(NC(=O)Cc4ccccc4)cc3C(=O)N([C@@H](C)CO)C[C@H]2C)cc1,i,i,i,i
C[C@@H]1CCCCO[C@H](CN(C)Cc2ccccc2)[C@@H](C)CN([C@H](C)CO)C(=O)c2cc(NC(=O)Nc3ccc4c(c3)OCO4)ccc2O1,i,i,i,i
COc1ccc(S(=O)(=O)N(C)C[C@H]2Oc3ccc(NC(=O)c4ccncc4)cc3C(=O)N([C@@H](C)CO)C[C@H]2C)cc1,i,i,i,i
C[C@@H]1CCCCO[C@H](CN(C)C)[C@@H](C)CN([C@@H](C)CO)C(=O)c2cc(NC(=O)Nc3ccccc3)ccc2O1,i,i,i,i
CNC[C@H]1Oc2ccc(NS(=O)(=O)c3ccc(Cl)cc3)cc2CC(=O)N([C@@H](C)CO)C[C@H]1C,i,i,i,i
CCn1c(CSc2nc3ccccc3[nH]2)n[nH]c1=S,i,i,i,i
Cc1ccc(N(CC(N)=O)S(=O)(=O)c2ccc(F)cc2)cc1,i,i,i,i
C[C@@H]1CN([C@H](C)CO)C(=O)c2cccc(NS(C)(=O)=O)c2O[C@@H]1CN(C)CC1CC1,i,i,i,i
C[C@H](CO)N1C[C@H](C)[C@@H](CN(C)C(=O)NC2CCCCC2)Oc2c(NC(=O)Nc3ccc(F)cc3)cccc2C1=O,i,i,i,i
C[C@H](CO)N1C[C@H](C)[C@@H](CN(C)C(=O)Nc2ccc(F)cc2)Oc2c(NS(=O)(=O)c3ccc(Cl)cc3)cccc2C1=O,i,i,i,i
C[C@H]1CN([C@@H](C)CO)C(=O)Cc2cc(NC(=O)Cc3cn(C)c4ccccc34)ccc2O[C@H]1CN(C)C(=O)Nc1ccccc1,i,i,i,i
Cc1ccc(N)c(C(=O)CCCCC(=O)O)c1,i,i,i,i
c1ccc(CC(Cc2nc3ccccc3[nH]2)c2nc3ccccc3[nH]2)cc1 (stereo not drawn),i,i,i,i
COc1ccc(S(=O)(=O)Nc2ccc(Br)c3cccnc23)c([N+](=O)[O-])c1,i,i,i,i
Cc1noc(C)c1NC(=O)Nc1cccc2c1O[C@@H](CN(C)Cc1ccccc1)[C@H](C)CN([C@@H](C)CO)C2=O,i,i,i,i
COc1ccccc1NC(=O)c1c(NC(=O)c2ccco2)sc(C)c1C,i,i,i,i
N#Cc1c(-c2ccccc2)nc(SCCN2C(=O)c3ccccc3C2=O)[nH]c1=O,i,i,i,i
Cc1sc(NC(=O)COc2ccccc2)c(C(N)=O)c1-c1ccccc1,i,i,i,i
C[C@@H]1CN([C@H](C)CO)C(=O)c2cc(NC(=O)CCCN(C)C)ccc2O[C@@H]1CN(C)Cc1ccc(C(=O)O)cc1,i,i,i,i
CC(Oc1ccc(Cl)cc1Cl)C(=O)Nc1cccc(Cl)c1N1CCOCC1 (stereo not drawn),i,i,i,i
C[C@@H]1CCCCO[C@H](CN(C)S(=O)(=O)c2cccs2)[C@@H](C)CN([C@H](C)CO)C(=O)c2cc(NS(C)(=O)=O)ccc2O1,i,i,i,i
O=C(NCCO)c1cccc(Nc2nc(-c3ccccc3)c3cc(Cl)ccc3n2)c1,i,i,i,i
C[C@@H]1CN([C@H](C)CO)C(=O)Cc2cc(NC(=O)Nc3ccccc3)ccc2O[C@@H]1CN(C)Cc1ccc(C(=O)O)cc1,i,i,i,i
O=c1cc(-c2ccccc2)nc(SCc2nc3ccccc3c(=O)[nH]2)[nH]1,i,i,i,i
C=C(C)[C@H]1C[C@@]2(C)C(=CC1=O)CC[C@@H](O)[C@@H]2C,i,i,i,i
COc1ccc(S(=O)(=O)N(C)C[C@@H]2Oc3ccc(NC(=O)Nc4ccc(C(F)(F)F)cc4)cc3C(=O)N([C@H](C)CO)C[C@@H]2C)cc1,i,i,i,i
